Screens from PubChem BioAssay.
AID504770: growth inhibitors of E. coli YBA685 in a screen for V. cholerae RctB (chromosome II replication) inhibitors | E. coli YBA685 rctB-dependent plasmid, OD600 growth, 3 h; hits give low values | z-score (no concentration beside the values) | 130,000 compounds, 0.27% hits | AID 504770;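 active = z-score under -2 on both plates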;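 note: wells of about 30 µL received 100 nL stock; score is relative to mean and SD of the test wells; the first replicate is given; strong numbers were not always called active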
CapD inh: CapD enzyme inhibition. purified CapD enzyme, fluorescence intensity read-out; hits give low values; some hits fall short of the stated cut. z-score (concentration not given with the values). 140,000 compounds, 0.23% hits;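 active = z-score under -4 in either of two replicates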;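 note: stock transfer was 100 nL into about 40 µL; score is relative to mean and spread of the plate; one replicate is shown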
* marks the source's active call; other numbers are inactive results; x = no result given.

SMILES | AID504770 | CapD inh
N=C1/C(=C\c2ccc(-c3cccc(C(=O)O)c3)o2)C(=O)N=C2SC(N3CCCCC3)=NN12 | -0.35 | -3.8*
Cn1cnnc1SCC(=O)N1CCCCC1 | -0.65 | 0.99
CCC(=O)N1c2ccccc2NC2=C(C(=O)CC(C)(C)C2)C1c1cc(OC)c(OC)c(OC)c1 (stereo not drawn) | x | 0.36
COc1ccc(C2C=C(c3cccc(Br)c3)Nc3nc4ccccc4n32)cc1OC (stereo not drawn) | x | -0.025
Cc1noc(C)c1CSc1ccccc1C(=O)Nc1nc(SCc2ccc(Cl)cc2)n[nH]1 | 1.5 | x
CCn1c(=O)c(-c2c(C)[nH]c3ccccc23)nc2cc(S(=O)(=O)N(C)C)ccc21 | -0.65 | x
COc1cc(CCNC(=O)OCCc2ccccc2OC)cc(OC)c1 | x | -0.24
COc1cc(OC)nc(Oc2cccnc2C(=O)O)n1 | x | 0.2
COc1cc(OC)nc(COc2ccc(C(=O)NC(C)c3ccccc3)cc2)n1 (stereo not drawn) | x | -0.36
O=C(CC(=O)Nc1ccccc1OC(F)(F)F)Nc1ccccc1OC(F)(F)F | 0.05 | 3.6
CCC(C)c1ccc(NC(=O)CC#N)cc1 (stereo not drawn) | -0.65 | x
COc1ccccc1N1CCN(C(=O)c2cnn3c(C)c(Cc4ccccc4Br)c(C)nc23)CC1 | x | -0.32
COC(=O)C1=C(C(=O)OC)SC2(S1)C(C(=O)OC)=C(C(=O)OC)SC1=C2c2cc(OC)ccc2N(C(C)=O)C1(C)C | x | 0.16
NC(=O)C1CCN(c2ccc(C(F)(F)F)cn2)CC1 | x | 7.9
O=C(/C=C/c1ccco1)N(Cc1cccs1)C1CCS(=O)(=O)C1 (stereo not drawn) | -0.6 | -0.74
O=S(=O)(c1ccc2c(c1)Cc1cc(S(=O)(=O)N3CCCCC3)ccc1-2)N1CCCCC1 | x | 0.05
O=C(CCC1CCCC1)N1CCN(C(=O)c2cccnc2)CC1 | 1.4 | x
COc1cccc(NC(=O)COc2coc(CSc3nncn3C)cc2=O)c1 | -0.85 | x
Cc1ccc(C(NC=O)c2ccccc2)cc1 (stereo not drawn) | -0.85 | x
CC(C)(C)SC(=S)SCC(=O)c1ccc(F)cc1 | x | -0.13
COc1ccc(/C=C(\C#N)c2nc(-c3ccc(Cl)cc3)cs2)cc1OC | x | -0.97
O=c1[nH]c2ccc(S(=O)(=O)NCc3ccccc3)cc2[nH]1 | -1.2 | -0.51
Cc1ccc(Nc2nc3ccccc3s2)c(C)c1 | x | -1.1
C=CCOc1cccc(NC(=O)Nc2ccccc2)c1 | -0.8 | -0.23
O=C(O)C1C2C=CC(C2)C1C(=O)Nc1ccc(Cl)cc1 (stereo not drawn) | 0.35 | 0.6

Remaining list, next part.
SMILES | AID504770 | CapD inh
c1ccc2[nH]c(CSc3nnnn3C3CCCCC3)nc2c1 | 1 | x
N#CC1=C(N)Oc2n[nH]c(-c3ccc([N+](=O)[O-])cc3)c2C1c1c(F)cccc1Cl (stereo not drawn) | x | -2.2
Cc1nnc(NC(=O)c2ccccc2NC(=O)c2ccccc2)s1 | 0.4 | 0.41
COc1ccc(C2=NN(S(=O)(=O)c3ccc(C)cc3)C(c3ccccc3)C2)cc1 (stereo not drawn) | x | -0.63
O=C1CC(=O)N(C2CCCCC2)C(=O)N1 | -0.95 | x
CC1(C)OCC(C(O)C(O)C2COC(C)(C)O2)O1 (stereo not drawn) | 0.25 | 1.1
COc1ccc(OC)c(S(=O)(=O)NCCc2sc(-c3ccc(OC)c(OC)c3)nc2C)c1 | -0.25 | 0.025
O=C(O)c1ccccc1SCC1CCCO1 (stereo not drawn) | 0 | x
N#CCc1ccc(OC(=O)c2cnccc2C(F)(F)F)cc1 | -0.5 | -0.6
CCN=C1SC(CC(=O)Nc2ccc(F)cc2)C(=O)N1CC (stereo not drawn) | x | 0.18
CN(C)c1ccnc2sc(C(N)=O)c(N)c12 | -0.25 | 3.2
CSc1ccccc1NC(=O)c1cc(-c2ccccc2)on1 | -0.7 | 2.3
O=C(CCc1nc2ccccc2[nH]1)NCc1ccc(F)cc1Cl | -0.5 | 8.5
Cn1c(NCc2ccccc2)nc2ccccc21 | -0.7 | 0.18
Cc1cc(OCC(O)CNC(C)(C)C)ccc1C(C)C (stereo not drawn) | -0.25 | -0.23
CCOC(=O)c1c(C)oc2nc(COc3cc(Cl)ccc3Cl)nc(N)c12 | 0.6 | x
CC1(C)CC(N(CCCO)C(=O)c2ccccc2)CCO1 (stereo not drawn) | -0.55 | -0.11
Cc1nn(-c2ccc(F)cc2)c(Cl)c1C=Nc1cccc(C#N)c1 | -0.45 | -0.73
O=C(COC(=O)C1CC2C=CC1C2)Nc1cccc(C(F)(F)F)c1 (stereo not drawn) | 0.3 | x
Cc1cc2cc(CN(Cc3ccccc3)C(=O)N(C)C)c3nnnn3c2cc1C | -0.45 | x
Cc1cccnc1Nc1nc(-c2cccnc2)cs1 | -0.95 | x
COc1ccccc1NC(=O)Cc1noc(CSc2cccc[n+]2[O-])n1 | -0.15 | x
O=C(COc1ccc(Cl)cc1Cl)NCCO | -0.2 | 0.12
FCCOc1ccc(OCCF)cc1 | 0.45 | 0.12
CCOC(=O)c1c(C)nc2c(c1-c1cccnc1)C(=O)c1ccccc1-2 | -5.2 | x

Filtered by structure, the entries above containing a thiophene ring, fused or not.
SMILES | AID504770 | CapD inh
O=C(/C=C/c1ccco1)N(Cc1cccs1)C1CCS(=O)(=O)C1 (stereo not drawn) | -0.6 | -0.74
CN(C)c1ccnc2sc(C(N)=O)c(N)c12 | -0.25 | 3.2

Next section:
SMILES | AID504770 | CapD inh
Cc1ccc2c(c1)c1nc3ccccc3nc1n2C(C)C | 0.85 | 0.66
CCCCCn1c(SCc2ccccc2F)nc2cc(C(=O)N3CCC(C(N)=O)CC3)ccc2c1=O | x | -0.13
O=C(c1ccc(S(=O)(=O)N2CCOCC2)cc1)N1CCN=C1SCc1c(F)cccc1Cl | -0.85 | 5.3
COC(=O)CSc1nccc(-c2ccc3c(c2)CCC(C)(C)O3)n1 | 2 | 8
O=C(OC1CCOC1=O)c1cc(-c2ccco2)nc2ccccc12 (stereo not drawn) | -0.35 | x
CCOC(=O)c1c(C)n(C)c2ccc(OCC(O)CN3CCCCCC3)cc12 (stereo not drawn) | 0.15 | 0.46
CCSc1nnc(-c2cccs2)n1Cc1ccccc1 | -0.8 | x
CCOC(=O)c1ncoc1-c1ccc(OC)cc1 | -0.65 | 71
O=C(NCc1ccco1)c1cnn2ccccc12 | 0.65 | 22
O=C(CCc1c[nH]c2ccccc12)OCc1c(Cl)cccc1Cl | 0.2 | -0.53
Cc1ccc(-c2noc(CCC(=O)NCC3CCN(Cc4cccc(C)c4)CC3)n2)cc1 | 2 | -1.1
O=C1CCCc2nc3c(cc21)C(=O)CCC3 | x | -0.39
CC(C)(C)C(=O)CSc1ncnc2nc[nH]c12 | -0.3 | 0.05
CCOC(=O)c1cnc(SCc2cccc(C(F)(F)F)c2)nc1N | -0.45 | 0.29
CN(C)C(CNC(=O)Nc1cccc(Cl)c1)c1cccnc1 (stereo not drawn) | -0.75 | -0.88
O=C(/C=C\c1ccco1)Nc1c2c(nn1-c1ccc(Cl)cc1)CSC2 | -0.25 | x
CCOC(=O)c1c(NC(=O)C(C)Sc2nnc(CNC(=O)c3ccco3)n2-c2ccccc2OC)sc2c1CCC2 (stereo not drawn) | x | -0.39
O=C1c2ccccc2C2CC(c3ccc(Cl)cc3)=NN12 (stereo not drawn) | 1 | 0.085
O=C(OCc1ccc(C#Cc2ccccc2)s1)N1CCN(c2cnccn2)CC1 | x | 3.9
O=C(CCC(=O)n1ncc2ccccc21)NC1CCCCC1 | -0.8 | 0.21
Cc1ccc(NC(=O)C2(NS(=O)(=O)c3cccc4cccnc34)CCCCC2)cc1 | 1.7 | -1.2
COc1ccc(C2CC(c3ccccc3)=NN2C(=O)CCC(=O)O)cc1 (stereo not drawn) | x | 0.94
Cc1ccccc1Cn1c(=O)c2c(ncn2Cc2ccccc2)n(C)c1=O | x | -0.2
COc1ccc(NC2SC(=O)N(c3ccccc3)C2=O)cc1 (stereo not drawn) | 0.8 | x
CCSc1nnc2nc(C)cc(C)n12 | -2.1 | x

Following part.
SMILES | AID504770 | CapD inh
O=C(CSc1nc(NCc2ccc(Cl)cc2)c2ccccc2n1)NCC1CCCO1 (stereo not drawn) | x | 0.92
O=C1C2ON(c3ccc(Cl)cc3)C(c3cccs3)C2C(=O)N1Cc1ccccc1 (stereo not drawn) | x | -0.38
CCCc1cc(=O)[nH]c(SCc2ccc(Cl)cc2Cl)n1 | x | 0.3
C1CCN(c2nc(N3CCCC3)nc(N3CCNCC3)n2)C1 | 0.1 | x
CCNC(=O)c1cc(=O)oc2cc(OCc3ccc(Cl)cc3)ccc12 | x | 41
Cc1cccc(Nc2nc(C)cc(C)c2C#N)c1 | 0.45 | -0.075
O=c1cc(O)n(-c2ccccc2)c(=S)n1-n1c(=O)cc(O)n(-c2ccccc2)c1=S | 2.2 | 1.3
COCCOC(=O)C1=C(C)NC(C)=C(C(=O)OCCOC)C1c1cn(-c2ccccc2)nc1-c1ccc(F)cc1 | x | 1.1
COC1=CC(=O)C=C(OC)C1=O | 1.3 | 0.015
CCOc1ccc(Br)cc1NC1CCCCC1COC(=O)NCCc1c[nH]c2ccc(C)cc12 (stereo not drawn) | x | 0.45
CCn1cc(CNC(=O)CCCSc2nc(-c3ccco3)cc(C(F)(F)F)n2)cn1 | -0.2 | x
COc1ccc(C2=NN(C(C)=O)C(c3cc4ccc(C)cc4nc3Cl)C2)cc1 (stereo not drawn) | x | 0.035
O=C1C(C=NC2CCCCCC2)=C(O)c2ccccc21 | -0.4 | -2.6
Cc1c(C(=O)N/C=N/OCc2ccccc2F)sc(C#N)c1-c1ccccc1 | x | 0.09
CC12CN3CC(C)(CN(C1)C3c1ccccc1)C2=O (stereo not drawn) | -0.7 | 0.14
CSc1cccc(NC(=O)C2CCCN2S(=O)(=O)c2cccc3cccnc23)c1 (stereo not drawn) | -0.75 | -0.34
Cc1cc(Br)ccc1NC(=O)c1sc2ncn(CC(=O)N3CCN(c4ccccn4)CC3)c(=O)c2c1C | x | -0.8
O=C1CC(n2nnn(-c3ccccc3)c2=S)C2COC1O2 (stereo not drawn) | x | 0.66
CC(CN1CCCC1)OC(=O)c1cc(C(C)(C)C)cc(C(C)(C)C)c1 (stereo not drawn) | 1.2 | 0.79
CCOc1ccccc1/C=N/NC(N)=S | x | -1.5
Cc1n[nH]c(C)c1Nc1cnn(C23CC4CC(CC(C4)C2)C3)c(=O)c1Cl | 0.85 | 0.045
O=C(c1ccccc1)N1N=C2c3ccccc3S(=O)(=O)N2C1N1CCCCC1 (stereo not drawn) | x | -0.28
Cn1cnc(S(=O)(=O)Nc2ccc3[nH]ccc3c2)c1 | -0.2 | 0.9
CC(c1ccccc1)C1OCC(C[N+]2(C)CCCCC2)O1 (stereo not drawn) | -0.15 | -0.09
O=C(Nc1cccc(-c2nc3ccccc3o2)c1)c1cc(=O)c2ccccc2o1 | 0.8 | 0.11

4 entries from above, as labelled records.
O=c1[nH]c2ccc(S(=O)(=O)NCc3ccccc3)cc2[nH]1
- AID504770 = -1.2
- CapD inh = -0.51
O=C(COc1ccc(Cl)cc1Cl)NCCO
- AID504770 = -0.2
- CapD inh = 0.12
CCCc1cc(=O)[nH]c(SCc2ccc(Cl)cc2Cl)n1
- AID504770 = x
- CapD inh = 0.3
O=C1CCCc2nc3c(cc21)C(=O)CCC3
- AID504770 = x
- CapD inh = -0.39

Taken from above:
COc1ccc(C2=NN(C(C)=O)C(c3cc4ccc(C)cc4nc3Cl)C2)cc1 (stereo not drawn) – CapD inh = 0.035
COC1=CC(=O)C=C(OC)C1=O – CapD inh = 0.015
Cn1cnc(S(=O)(=O)Nc2ccc3[nH]ccc3c2)c1 – AID504770 = -0.2
O=c1cc(O)n(-c2ccccc2)c(=S)n1-n1c(=O)cc(O)n(-c2ccccc2)c1=S – CapD inh = 1.3
C1CCN(c2nc(N3CCCC3)nc(N3CCNCC3)n2)C1 – AID504770 = 0.1
Cc1cc(Br)ccc1NC(=O)c1sc2ncn(CC(=O)N3CCN(c4ccccn4)CC3)c(=O)c2c1C – CapD inh = -0.8

Next section.
SMILES | AID504770 | CapD inh
C/C(CC1CC(COCCC(C)C)OC1=O)=N\NC(N)=S (stereo not drawn) | -0.75 | x
C/C(Cn1nnc2ccccc21)=N/OC(=O)c1c(F)cccc1F | -0.35 | 0.61
CC1CN=C(Nc2ccc(F)cc2)S1 (stereo not drawn) | -0.65 | -0.25
COc1ccc(/C=C2/SC(=O)N(CCC(=O)Nc3ccccc3C)C2=O)cc1OC | x | -0.28
COc1ccc(C2/C(=C(\O)c3ccc(Br)cc3)C(=O)C(=O)N2c2cccc(C(F)(F)F)c2)cc1 (stereo not drawn) | x | -0.47
O=C(O)Cn1cc(C(=O)C2CCCCC2)c2ccccc21 | 1.4 | 0.06
O=C(N/N=C/c1ccc(C(F)(F)F)cc1F)c1ccccc1[N+](=O)[O-] | x | 0.55
CC(c1ccccc1F)n1cc(C(=O)Nc2ccc3nc[nH]c3c2)nn1 (stereo not drawn) | 0.2 | x
CC1CCCC(C)N1C(=O)COC(=O)c1ccc(N2C(=O)c3ccccc3C2=O)cc1 (stereo not drawn) | 0.25 | x
Cn1nnnc1SCC(=O)Nc1nn(-c2ccccc2)nc1C(N)=O | 0.2 | 2.2
CC1(C)OC2OC(C(=O)NNC(=O)CCCCCNC(=O)c3ccccc3)C3OC(C)(C)OC3C2O1 (stereo not drawn) | x | -0.43
Cc1cc(S(=O)(=O)N2CCN(C(=O)c3ccco3)CC2)c(C)cc1Cl | x | -0.19

An excerpt of these results, tab-delimited:
molecule	AID504770	CapD inh
CC1CCCC(C)N1C(=O)COC(=O)c1ccc(N2C(=O)c3ccccc3C2=O)cc1 (stereo not drawn)	0.25	x
Cn1nnnc1SCC(=O)Nc1nn(-c2ccccc2)nc1C(N)=O	0.2	2.2
CC1(C)OC2OC(C(=O)NNC(=O)CCCCCNC(=O)c3ccccc3)C3OC(C)(C)OC3C2O1 (stereo not drawn)	x	-0.43
Cc1cc(S(=O)(=O)N2CCN(C(=O)c3ccco3)CC2)c(C)cc1Cl	x	-0.19

Not all compounds are listed; the hit share may differ from the screen's.
